Screening data as filed in PubChem BioAssay.
GLP-1R inv ag: qHTS of GLP-1 Receptor Inverse Agonists (Inhibition Mode). HEK293 GLP-1R CRE-luciferase, luminescence, 24 h; GLP-1R form is constitutively active. 410,000 compounds, 1.6% hits. AID 624417, 2012. Potency, µM (series often up to 38.3 µM), for the others: top-dose activity change, negative = inhibition, most hits filed as inhibitors. Glucagon-like peptide 1 receptor (Homo sapiens), P43220; further: potency means the concentration at half of the fitted maximal effect; on the % scale 0 is the no-effect control and ±100 the full control effect; nearly all actives have a fitted effect of over 55% in size
Target sequence (P43220 whole entry, looked up): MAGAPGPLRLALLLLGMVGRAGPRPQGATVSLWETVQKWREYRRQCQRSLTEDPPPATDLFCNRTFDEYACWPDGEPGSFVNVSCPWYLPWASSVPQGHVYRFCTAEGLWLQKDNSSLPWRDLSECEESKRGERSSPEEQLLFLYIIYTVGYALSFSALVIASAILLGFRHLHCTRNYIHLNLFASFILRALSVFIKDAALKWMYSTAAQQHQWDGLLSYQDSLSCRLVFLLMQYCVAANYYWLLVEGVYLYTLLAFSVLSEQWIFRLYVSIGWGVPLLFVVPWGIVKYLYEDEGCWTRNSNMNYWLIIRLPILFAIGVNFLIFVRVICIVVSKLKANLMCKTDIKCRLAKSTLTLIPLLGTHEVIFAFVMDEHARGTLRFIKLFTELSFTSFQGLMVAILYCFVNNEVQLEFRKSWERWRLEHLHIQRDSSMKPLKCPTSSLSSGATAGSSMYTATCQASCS
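Readout was luciferase luminescence, measured 12 min after detection reagent at room temperature. Beforehand, GLP-1R reporter HEK293 cells had sat 12 h, then received compounds for 24 hr at 37 deg C.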
pAkt inh: HTS Assay for Inhibitors of Akt Phophorylation: Primary Screen; Neuro2A IGF-stimulated pAkt S473 HTRF, 20 min; hits give low values; activity change, % for hits at 50 µM; 360,000 compounds, 0.32% hits; AID 651550, 2012; in the data active means activity change below about -80%; inconclusive means mostly about -51% to -80%; further: on the % scale 0 is the no-effect control and ±100 the full control effect
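Single-point screen (50 µM final compound) in Neuro2A cells stimulated 20 min with 6 nM IGF at 37 deg C. After lysis, Ser473-phosphorylated Akt read by HTRF (ex 330 nm, em 615/665 nm) as the 665/615 ratio.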
HEK293 tox: qHTS of GLP-1 Receptor Inverse Agonists: Cytotox Screen; HEK293 cAMP-luciferase reporter cells, luminescence, 24 h; AID 624418, 2012; 410,000 compounds, 0.13% hits; Potency, µM (top dose mostly 38.3 µM), for inactives: top-dose activity change, negative = inhibition, actives largely listed as inhibitors;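 further: loss of luciferase light is scored as toxicity; potency means the concentration at half of the fitted maximal effect; on the % scale 0 is the no-effect control and ±100 the full control effect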
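1536-well qHTS counterscreen of the MLSMR; 200 cells/uL, 12 h pre-incubation, 23 nL cpd, 24 h at 37 deg C 5% CO2, luciferase detection reagent, 12 min RT, luminescence. Inhibition = undesired.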
aSyn yeast inh: qHTS of alpha-syn Inhibitors | 370,000 compounds, 0.14% hits | Yeast expressing alpha-synuclein, growth rescue, BacTiter-Glo, 24 h | Potency, µM (doses to about 46.1 µM), for inactives: at the highest dose growth rescue (activation), hits mostly activators | AID 652106, 2013; further: potency means the concentration at half of the fitted maximal effect; % of control where 0% means no effect; nearly all actives have a fitted effect of over 65% in size
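Rescue of yeast growth: cells expressing toxic alpha-synuclein, induced in galactose at OD600 0.02, incubated with compound 24 h at 30 C. ATP luminescence quantified growth; inhibitors of toxicity appear as activators.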
MmCpn inh: Inhibitors of TCP-1 ring complex (TRiC) of Methanococcus maripaludis (MmCpn): qHTS. AID 504842, 2011. purified Mm-Cpn ATPase, ADP Transcreener TR-FRET. 330,000 compounds, 0.031% hits. Potency, µM (titrated, usually from 76.9 µM), without a hit: top-dose activity, negative = inhibition, usual class: inhibitors. Chaperonin Mm-Cpn (Methanococcus maripaludis); further: potency means the concentration at half of the fitted maximal effect; on the % scale 0 is the no-effect control and ±100 the full control effect; nearly all actives have a fitted effect of over 80% in size
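ATP (10 uM final) was added to archaeal chaperonin (25 nM final) after 10 min exposure to test compound at 37°C; after 30 min further incubation, ADP was detected by competitive TR-FRET.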
TDP-43 yeast inh: qHTS of TDP-43 Inhibitors; TDP-43 expressing yeast growth rescue, BacTiter-Glo, 24 h; Potency, µM (doses to about 46.1 µM), without a hit: top-dose growth rescue (activation), most hits filed as activators; 410,000 compounds, 1.8% hits; AID 652104, 2013; further: potency means the concentration at half of the fitted maximal effect; % of control where 0% means no effect; nearly all actives have a fitted effect of over 50% in size
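Growth rescue of TDP-43-toxic yeast measured as ATP luminescence (BacTiter-Glo). Cells grown to mid-log in raffinose, induced in galactose at OD600=0.02, exposed to compound 24 hr at 30 deg C.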
Abeta rescue: qHTS for compounds that reverse cellular toxicity of Amyloid beta (A-beta) peptide in yeast: Primary Screen. yeast expressing A-beta42, growth rescue, OD600, 48 h; response scale: 0% DMSO, 100% iron-clioquinol control. Potency, µM (doses to about 46.1 µM), for the others: top-dose growth rescue, hits mostly activators. 410,000 compounds, 0.063% hits; further: potency means the concentration at half of the fitted maximal effect; nearly all actives have a fitted effect of over 55% in size
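Growth rescue measured by 600 nm absorbance after 48 h yeast culture at 30 C with compound. Values normalized between DMSO and an equimolar ferric chloride plus clioquinol control.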
FUS suppressor: qHTS for Suppressors of FUS Proteinopathy: Primary screen using FUS-linked yeast assay; S. cerevisiae FUS-expressing, growth rescue, OD600, 24 h; Potency, µM (highest dose often 76.6 µM), inactives show top-dose growth rescue (activation), usual class: activators; 390,000 compounds, 0.24% hits; AID 1347120, 2019;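 further: potency means the concentration at half of the fitted maximal effect; plate controls were DMSO vehicle for no effect and reference control for full effect; nearly all actives have a fitted effect of over 55% in size; some results filed as inactive show a strong effect at the top dose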
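S. cerevisiae expressing FUS from galactose induction served as the toxicity model. Growth after 24hr at 30C, read as absorbance at 600 nm, indicates suppression of toxicity; compounds dosed at several concentrations.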
The depositor's hits bear a star; i = inactive; ? = inconclusive; nt = no result given; [ ] = dose if it differs, or a comment. Unless noted, the call rests on the fitted dose curve; in most records, active means well fitted curve in the direction sought with a large enough effect; inconclusive means small, poorly fitted or top-dose-only effect, or another doubt; inactive means no such curve, though single readings can be large; an effect the other way counts as inactive or inconclusive.

1) Cc1ccc(CNC(=O)CCS(=O)(=O)c2ccc3c(c2)NC(=O)CS3)cc1
2) COc1ccc(N(CC(=O)N2CCCC2)S(C)(=O)=O)cc1
3) C/C(CC(=O)C(F)(F)F)=N\NC(=O)/C(C#N)=C/N(C)C
4) Fc1ccc(/C=C2\CCCC3=C2Nc2ncnn2C3c2ccc(F)cc2)cc1 (centres undefined)
5) C=CCn1c(CCNC(=O)c2ccccc2F)nnc1SCC(=O)Nc1ccc(OC)cc1
6) CC(C)NC(=O)C1(S(=O)(=O)c2ccccc2)CC=CC1
7) C/C(=N\NC(=O)c1ccc([N+](=O)[O-])cc1)c1c(O)cc(C)oc1=O
8) O=C(CNC(=O)c1ccc(Cl)cc1)OCC(=O)c1ccccc1
9) CN(C1CCCCC1)S(=O)(=O)c1ccc(NC(=S)NC(=O)c2cccs2)cc1
10) CCN(CC)C(=O)c1[nH]cnc1C(=O)N[C@@H](C)C(=O)OC(C)(C)C
entry no.	1	2	3	4	5	6	7	8	9	10
Abeta rescue	14%	1%	-8%	10%	1%	-8%	-9%	-1%	-10%	0%
TDP-43 yeast inh	3%	11%	-3%	?	25%[9.22 µM]	7%	-33%[inhibitor]	-1%	-9%	28%
FUS suppressor	22%	8%	-5%	39%	1%	-15%	14%	-1%	24%	-19%
pAkt inh	i	i	i	i	i	i	i	i	i	i
MmCpn inh	-4%	?	1%	-6%	0%	-4%	0%	1%	-2%	nt
aSyn yeast inh	1%	0%	-2%	-6%	1%	-1%	-3%	3%	-3%	1%
HEK293 tox	-6%	4%	11%	-17%	-9%	?	9%	-10%	3%	-16%
GLP-1R inv ag	-25%	8%	11%	?	11%	20%	2%	1%	?	7%

11) CC1CCCN(C2(O)C(=O)Nc3c(C(F)(F)F)cccc32)C1 (centres undefined)
12) O=S(=O)(c1ccccc1)N1CCN(Cc2cc3c(cc2Br)OCCO3)CC1
13) CCCCc1c(O)nc2sc3cc(OC)ccc3n2c1=O
14) CCCNC(=O)COC(=O)c1cc(C)nc2ccccc12
15) COc1ccc(CCNC(=O)CSc2nc3[nH]ncc3c(=O)n2-c2ccc(C)c(Cl)c2)cc1OC
16) O=C(Nc1cccc(Cl)c1)c1cc(-c2ccc3c(c2)OCCO3)on1
17) O=C(CC1C(=O)NCCN1Cc1c(F)cccc1Cl)NCCC1=CCCCC1 (centres undefined)
18) O=C1N(CN2C(=O)C3(OCCO3)c3ccccc32)c2ccccc2C12OCCO2
19) O=C(CN(c1ccc(F)cc1)S(=O)(=O)c1ccccc1)NC1CC2CCC1C2 (centres undefined)
20) Cn1c(CCNC(=O)c2ccccc2F)nnc1SCC(=O)Nc1nncs1
entry no.	11	12	13	14	15	16	17	18	19	20
Abeta rescue	-14%	-14%	0%	-1%	-10%	-19%	-5%	-23%	-12%	7%
TDP-43 yeast inh	28%	-6%	3%	-2%	-2%	11%	0%	-28%	4%	20%
FUS suppressor	3%	nt	-15%	-9%	-9%	23%	17%	18%	-7%	-15%
pAkt inh	i	i	i	i	i	nt	i	i	i	i
MmCpn inh	-2%	1%	1%	-3%	1%	nt	0%	3%	-3%	1%
aSyn yeast inh	12%	-2%	2%	-6%	-3%	nt	-4%	-24%	-2%	-2%
HEK293 tox	-13%	2%	14%	0%	-13%	-1%	-8%	-5%	-9%	-2%
GLP-1R inv ag	-28%	?	7%	6%	12%	?	-21%	46%[activator]	?	1%

21) O=S1(=O)CC2N=C(N(Cc3c(F)cccc3Cl)c3ccccc3F)SC2C1 (centres undefined)
22) COc1ccc(-c2cc(C(=O)Nc3ccc(C)c(C)c3)no2)cc1
23) O=C(/C=C/c1ccccc1)c1ccc2c3c(cccc13)CC2
24) COc1ccc(C(=O)Nc2ccc(C3(C#N)CCCC3)cc2)cc1
25) CC1(C)Cc2c(c(-c3ccco3)nc3sc4c(NCCN5CCOCC5)ncnc4c23)CO1
26) CCc1cc(-c2[nH]ncc2-c2ccc([N+](=O)[O-])cc2)c(O)cc1OC
27) CCN(CC)C(=O)CSc1nc(-c2ccc(C)cc2)nc2c1COC(C)(C)C2
28) CCC(=O)c1ccccc1OCCN1CCN(Cc2ccccc2)CC1
29) Cc1ccc(C)c(N2CCN(C(=O)c3c4c(nc5ccccc35)C(=O)N(C3CCCCC3)C4)CC2)c1
30) CCOC(=O)C1CCN(C(=O)c2ccc3c(c2)NC(=O)/C(=C/c2ccccc2)S3)CC1
entry no.	21	22	23	24	25	26	27	28	29	30
Abeta rescue	23%	-7%	0%	-15%	-19%	?	11%	15%	-13%	11%
TDP-43 yeast inh	-8%	10%	2%	-14%	7%	-61%[inhibitor]	1%	2%	-9%	21%
FUS suppressor	nt	-14%	14%	15%	25%	?	-7%	2%	1%	14%
pAkt inh	i	i	i	i	i	i	nt	i	nt	i
MmCpn inh	4%	2%	-2%	-3%	-1%	1%	-2%	0%	nt	-1%
aSyn yeast inh	-16%	1%	26%	-10%	2%	9%	nt	3%	nt	-6%
HEK293 tox	-5%	-19%	-2%	-7%	0%	0%	-3%	9%	10%	-1%
GLP-1R inv ag	-15%	15%	?	-39%	171%[activator]	?	0%	-22%	-14%	2%

31) CCOc1cc(C)c(Cl)cc1S(=O)(=O)NCc1ccc2c(c1)OCO2
32) C=CCn1c(C)nnc1SCC(=O)Nc1ccccc1C(=O)NC1CC1
33) C=CCn1c(SCC(=O)Nc2ccccc2F)nnc1C(C)NC(=O)c1ccccc1F (centres undefined)
34) O=C(COc1ncnc2ccccc12)NC1CCCCC1
35) OCC(O)CSc1nc(-c2ccccc2)nc2c1CCC2 (centres undefined)
36) CC(C)N(C(=O)c1ccc2nc(-c3ccccc3)c(-c3ccccc3)nc2c1)C(C)C
37) Cc1nc(SCC(=O)N2CC(=O)Nc3ccccc32)nc(C)c1C
38) C=CCN1CCN(C(=O)c2ccc3c(c2)OCO3)CC1
39) C=CCSc1nc(C)c(Cc2cccc3ccccc23)c(=O)[nH]1
40) C=CCN(CC=C)c1ncnc2[nH]ncc12
entry no.	31	32	33	34	35	36	37	38	39	40
Abeta rescue	-27%	5%	-14%	14%	-11%	-16%	2%	1%	7%	-4%
TDP-43 yeast inh	14µM*	17%	10%	-5%	-9%[0.397 µM]	0%	-7%	1%	22%	-16%
FUS suppressor	1%	-26%	5%	-3%	3%	14%	-9%	-15%	-10%	-13%
pAkt inh	i	i	i	i	i	i	i	i	i	i
MmCpn inh	2%	2%	-1%	1%	-1%	-1%	3%	0%	0%	nt
aSyn yeast inh	11%	6%	-4%	4%	1%	0%	4%	0%	11%	12%
HEK293 tox	-20%	-2%	-4%	1%	-3%	-6%	-19%	2%	-18%	-11%
GLP-1R inv ag	?	-1%	7%	21%	45%[activator]	?	-5%	8%	-24%	?

Reprinted from the part before: three entries; new compounds follow.
38) C=CCN1CCN(C(=O)c2ccc3c(c2)OCO3)CC1
39) C=CCSc1nc(C)c(Cc2cccc3ccccc23)c(=O)[nH]1
40) C=CCN(CC=C)c1ncnc2[nH]ncc12
41) COc1cc2c(cc1OC)C1(CCCC1)CNC2c1ccc([N+](=O)[O-])cc1 (centres undefined)
42) Cc1cc(C)c(S(=O)(=O)n2cc(C(C)C(N)C(=O)O)c3ccccc32)c(C)c1 (centres undefined)
43) COC(=O)c1sccc1NC(=O)c1c(Cl)cnn1C
44) CC(=O)c1ccc(OCCn2c(SCC(=O)O)nc3ccccc32)cc1
45) CCOc1ccc(N(CC(=O)NC2CC3CCC2C3)S(=O)(=O)c2ccc(C)cc2)cc1 (centres undefined)
46) COc1ccc(-c2c(NCCc3ccccc3)c(=O)c2=O)cc1
47) Cc1cc(C)c(C(=O)N2CCCC(CNC(=O)C3(c4ccc(Cl)cc4)CC3)C2)c(=O)[nH]1 (centres undefined)
48) O=C(O)c1ccc(/C=C(\c2nc3ccccc3[nH]2)c2nc3ccccc3s2)cc1
49) COC(=O)c1scc(C)c1N/N=C(\C)c1ccc(F)cc1F
50) Nc1nnc(SCCOc2ccc(Br)cc2)s1
51) Cc1cc2nc(CN(C)Cc3c(C(=O)N(C)C)nc4ccc(Cl)cn34)[nH]c2cc1C
52) c1ccc2[nH]c(NC3=NCCC3)nc2c1
53) COc1ccc(-n2c(=O)c3ccccc3c3ccccc3c2=O)c(OC)c1
entry no.	38	39	40	41	42	43	44	45	46	47	48	49	50	51	52	53
Abeta rescue	1%	7%	-4%	-6%	1%	13%	20%	-6%	-25%	6%	-2%	-5%	6%	-13%	9%	2%
TDP-43 yeast inh	1%	22%	-16%	-6%	23%	20%	14%	6%	5%	2%	-7%	22%	?	-4%	17%	-1%
FUS suppressor	-15%	-10%	-13%	2%	9%	-16%	-20%	32%	-3%	8%	43%	-20%	20%	5%	-1%	nt
pAkt inh	i	i	i	i	i	i	i	i	i	i	i	i	i	i	i	i
MmCpn inh	0%	0%	nt	0%	0%	-7%	0%	0%	1%	5%	0%	-1%	0%	-1%	0%	-4%
aSyn yeast inh	0%	11%	12%	8%	4%	2%	0%	-22%	-7%	11%	1%	-1%	1%	0%	0%	-4%
HEK293 tox	2%	-18%	-11%	-3%	0%	6%	28%	1%	10%	-19%	-7%	-14%	-5%	-9%	?	1%
GLP-1R inv ag	8%	-24%	?	?	0%	34%[activator]	13%	7.9µM*	27%	-7%	?	0%	-16%	0%	-16%	8%

The list is partial (hit frequency here may not be typical).
